NPYLR7 agonist = mosquito NPYLR7 agonism; HEK293T NPYLR7/Galpha15, GCaMP6s calcium fluorescence; activation, % at 10 µM; hit rate 0.15% among 270,000; in the data active means activation above about 40%;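 further: 0% = vehicle and 100% = reference agonist at the receptor; some compounds past the cut are filed as inactive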
NPYLR7 agonist max-min = second read-out of NPYLR7 agonist, no call of its own (marks repeat the call); activation, %; measured here: Max-Min RFU normalised activation; some inactives read as strong as hits;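 span of the calcium signal over five minutes; 0% = vehicle and 100% = native peptide agonist; compound fluorescence can raise it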
Starred values were filed as active, the others as inactive; & = joins results of further samples.

Screens in order: NPYLR7 agonist	NPYLR7 agonist max-min
- c1ccc(Cc2nc(N3CCN(Cc4ccccc4)CC3)c3c4c(sc3n2)CCCC4)cc1
→ -2	-1
- Cc1cccc(-n2ncc3c2CCCC3NC(=O)CN(C)Cc2ccncc2)c1C (stereo unspecified)
→ 3	-4
- CCN(CC)c1ncccc1CNC(=O)C1CC(=O)Nc2ccccc21 (stereo unspecified)
→ 1	-2
- Cc1cc(NC(=O)c2ccccc2)n(-c2nc(-c3ccccc3)cs2)n1
→ -10	-15
- Cc1noc(C)c1CN(C)C(=O)C(N)c1ccccc1 (stereo unspecified)
→ 0	-3
- CCN(CC)CCN(CC)C(=O)Cn1nnnc1CN1CCOCC1
→ 0	-3
- CC(C)(C)c1ccc(S(=O)(=O)NC(=O)C2(C)CCN2C(=O)Cc2ccc(Cl)cc2Cl)cc1 (stereo unspecified)
→ 5	1
- c1ccc(Nc2nc(NCc3ccco3)nc3nccnc23)cc1
→ 1	8
- CN(Cc1cccc2cccnc12)C(=O)C1CCC(=O)N(CCN2CCOCC2)C1 (stereo unspecified)
→ 9&4	3&3
- Cc1nc2c(N(C)CC3CC(=O)N(C(C)(C)C)C3)ncnc2o1 (stereo unspecified)
→ -1	-3
- Cc1nn(C)c(C)c1NS(=O)(=O)c1ccccc1C(F)(F)F
→ 4	1
- CP(=O)(c1nccn1-c1ccc(Cl)nn1)N1CCCCCC1 (stereo unspecified)
→ 5&7	12&5
- COc1cc(OC)cc(C(=O)N2CCN(Cc3cc(=O)c(OCc4ccc(C(C)(C)C)cc4)co3)CC2)c1
→ 1	11
- CC(C)Cc1noc(-c2ccc(-c3ccc(O)cc3)nc2)n1
→ 1	4
- COc1cccc(-c2cc(-c3ccc(C(=O)NCc4ccsc4)cc3)[nH]n2)c1
→ 5	-3
- CCCCCNC(=O)c1ccc(-n2nc(-c3ccc(Cl)c(Cl)c3)cc2N)cc1
→ 4	1
- CC(=O)Nc1ccc(S(=O)(=O)N(C)CC(=O)n2ccccc2=NC(C)C)cc1
→ 1	-1
- NC(=O)c1ccc(N2CCCCC2)c([N+](=O)[O-])c1
→ 0	-2
- COc1ccc(S(=O)(=O)N2CCCC(C)C2)cc1N1CCN(S(=O)(=O)c2c(F)cccc2F)CC1 (stereo unspecified)
→ 8	19
- Fc1cccc(CNc2nccc(CCC(F)(F)F)n2)c1F
→ -1	-5
- O=C(Nc1cc2c(cc1C(=O)O)OCO2)c1ccccc1Cl
→ 1	-3
- CC(C)NC(=O)c1cc(C2CCCCN2C(=O)c2ccccc2)on1 (stereo unspecified)
→ 1	-2
- COc1ccc(CCn2c(-c3cc(C)c(OC)cc3C)nc3cc(Cl)ccc3c2=O)cc1
→ 4	2
- Cc1c[nH]c(=O)n1-c1ccc(C(=O)N2CCCC2c2ccccc2)cc1 (stereo unspecified)
→ -1	-1
- NS(=O)(=O)Cc1c(F)cccc1F
→ -1	-1
- O=C(CCl)Nc1nc2ccc([N+](=O)[O-])cc2s1
→ -5	-11
- CCC(C)C(NC(=O)c1cc(C(F)(F)F)cc(C(F)(F)F)c1)C(=O)Nc1nnc(-c2ccc(Cl)cc2)s1 (stereo unspecified)
→ 12	3
- CCOC(=O)C1=C(CC)NC2=C(C(=O)CCC2)C1c1ccc(Cl)cc1 (stereo unspecified)
→ -4	-6
- O=C(/C=C/c1ccccn1)N1CCC2(CCCN(CCc3ccccc3)C2)C1 (stereo unspecified)
→ 18	10
- Cc1ccn2c(C(=O)N(C)Cc3c(C)noc3C)c(C)nc2c1
→ 0	3
- CCOc1ccc(NC(=O)CSc2ncc(S(=O)(=O)c3ccc(OCC)cc3)c(=O)[nH]2)cc1
→ -2	-3
- CS(=O)(=O)NCC1CCN(C/C=C/c2ccc(F)cc2)C1 (stereo unspecified)
→ 8	5
- C/C=C(\C)CN1CCC(OCc2cccnc2)CC1
→ 5	2
- COc1cc(C=C2SC(=S)N(CCN3CCOCC3)C2=O)cc(Cl)c1OC
→ 2	1
- C=CCN(CC(=O)N1CCc2sccc2C1c1ccc(Cl)cc1Cl)C(=O)c1cccs1 (stereo unspecified)
→ 3	7
- O=C(c1ccco1)N(Cc1ccc(OS(=O)(=O)c2ccc(F)cc2)cc1)Cc1ccco1
→ 3	-8
- CC(C)c1nn(CN2CCN(Cc3ccccc3)CC2)c(=S)n1C1CC1
→ 9	5
- CCCCC(O)CN(Cc1c(C)nn(-c2ccccc2)c1Oc1ccc(F)cc1F)CC1CCCO1 (stereo unspecified)
→ 8	13
- CCOC(=O)C(C#N)=CNc1sc2c(c1C(=O)OCC)CCC2
→ -1	13
- O=C(CC1CSc2nccc(=O)n21)NCc1c(F)cccc1F (stereo unspecified)
→ -2	-4
- COC(=O)c1ccc(-c2ncc(-c3ccc(N(C)C)cc3)o2)cc1
→ 14	13
- CCn1nccc1NC(=O)C1(C)CCN1C(=O)C1(c2ccccc2)CC1 (stereo unspecified)
→ 3	2
- Cc1nn2cc(CCCOC(=O)C3CCCN3C(=O)C(C)C)cnc2c1C (stereo unspecified)
→ -1	-6
- C[n+]1cccc(C(=O)NCCOC(=O)c2ccc(F)cc2)c1
→ -14	-16
- CN1CCN(NS(=O)(=O)c2ccc(Cl)s2)CC1
→ 1	7
- Cc1c[nH]c(CN2CCCCC2c2nc3ccc(F)cc3[nH]2)c(C)c1=O (stereo unspecified)
→ -1	-1
- FC(F)(F)c1ccnc(N2CCC3(CCNCC3)C2)c1
→ 7	6
- O=C(c1ccc(CSc2nc3cccc(Cl)c3o2)cc1)N1C2CCC1CC(Oc1ccc(F)cc1F)C2 (stereo unspecified)
→ 11	-1
- CCCOCC1CCN(C(=O)c2ccc3c(c2)C(=O)N(CCC)C3=O)C1 (stereo unspecified)
→ -1	-6
- COc1ccccc1C(=O)Nc1ccnn1C1CCN(c2ncccn2)CC1
→ 3	1
- CCOc1ccccc1CNc1nnnn1CC
→ 2	1
- Cc1csc(S(=O)(=O)N2CCOC(CCc3ccccc3)C2)c1 (stereo unspecified)
→ 4	1
- COc1ccc(OC)c(C2CCCN2C(=O)C2CCN(S(=O)(=O)c3ccc(F)c(F)c3)CC2)c1 (stereo unspecified)
→ 0	4
- ClCc1nc2ccccc2n1C12CC3CC(CC(C3)C1)C2
→ -3	-5
- COc1ccc(CN2CCCn3cccc3C2c2ccc(F)cc2)cc1O (stereo unspecified)
→ 6	22
- O=C(CSc1nnc(NCCc2cccs2)s1)NC1CCCC1
→ 1	-3
- O=C(NCC1CCCN(C(=O)c2cccc(N3CCCC3=O)c2)C1)c1ccco1 (stereo unspecified)
→ 26	5
- Cc1noc(C)c1CC(=O)NNC(=O)Cc1cn2ccsc2n1
→ -2	6
- Cn1cccc1CN1CCC(C(=O)NC(c2ccc(F)cc2)c2ccc3ccccc3n2)CC1 (stereo unspecified)
→ 7	9
- Cn1c(=O)n(Cc2c(F)cccc2Cl)c(=O)c2c1nc1n2CCN1Cc1ccco1
→ 3	-1

Laid out differently: 2 of the compounds above.
molecule,NPYLR7 agonist,NPYLR7 agonist max-min
FC(F)(F)c1ccnc(N2CCC3(CCNCC3)C2)c1,7,6
O=C(c1ccc(CSc2nc3cccc(Cl)c3o2)cc1)N1C2CCC1CC(Oc1ccc(F)cc1F)C2 (stereo unspecified),11,-1

Continued.
Screens in order: NPYLR7 agonist	NPYLR7 agonist max-min
- COc1ccc(S(=O)(=O)NCCc2nnc3ccc(SCc4ccccc4C)nn23)cc1
→ 4	-7
- NC(=S)NN=Cc1ccc(N2CCOCC2)s1
→ 15	15
- O=C(NC(C(=O)NCc1ccccc1)C1CCN(C(=O)c2ccccc2F)CC1)c1ccccc1 (stereo unspecified)
→ 5	3
- OC(COCc1ccco1)CN(Cc1ccc2c(c1)OCO2)Cc1cccs1 (stereo unspecified)
→ -3	-14
- COCCCN(CC(=O)N(CCc1c[nH]c2ccccc12)Cc1ccc(C(F)(F)F)cc1)C(=O)Nc1ccc(OC)cc1OC
→ -14	-14
- CCN(Cc1cc(Cl)ccc1OC)C(=O)C1(c2ccccc2)CC1
→ 3	-8
- N#Cc1ccc(NCC(=O)Nc2ccc(F)cc2F)cc1
→ 0	28
- O=C(Nc1ccnn1C1CCCC1)c1ccco1
→ 8	6
- CCOC(=O)c1nn(CCc2scnc2C)c2c1CN(C/C(C)=C/c1ccco1)CC2
→ 23	10
- Cc1cc(C)c(C(N)=O)c(Sc2ccc(F)c(Cl)c2)n1
→ 12	11
- Cc1ccc(N2NC(=O)/C(=C/c3cccc(OC(=O)c4cccs4)c3)C2=O)cc1Cl
→ 0	-2
- FC(F)(F)c1cccc(CN2CCCn3cccc3C2c2ccc(Cl)c(Cl)c2)c1 (stereo unspecified)
→ 8	6
- O=C1CCCc2occ(C(=O)N3CCC4(CCCCC4)C3)c21
→ -5	1
- Cc1noc(-c2cccc(F)c2)c1C(=O)NCCc1cccs1
→ -1	6
- CCOc1ccc(-c2ccnc(N3CCN(C(=O)C(=O)OC)CC3)n2)cc1
→ -3	-7
- O=C(CNC(=O)c1ccsc1)Nc1cc(-c2ccccc2)ns1
→ 3	3
- CN(C)c1ncccc1C(=O)N1CCN(C2=NCC(C)(C)S2)CC1
→ -1	-2
- COCCN(Cc1ccccn1)CC1CCCN(C2Cc3ccccc3C2)C1 (stereo unspecified)
→ 11	4
- CCN(Cc1ccc(S(C)(=O)=O)cc1)CC1CCOCC1
→ 10	7
- Cc1ccc(-c2csc(NC(=O)C3Cc4ccccc4C(=O)O3)n2)c(C)c1 (stereo unspecified)
→ 1	3
- CC(C)(C)c1ccc(C2=N/C(=C\c3ccccc3Br)C(=O)O2)cc1
→ -9	-14
- CC(C)(C)c1cc2nc(-c3ccccc3F)cc(C(=O)NCc3ccc4c(c3)OCO4)n2n1
→ 5	21
- Cc1cccnc1NC(=O)c1c(O)c2ccccc2n(C)c1=O
→ -1	-2
- OC(Cn1ccnc1)c1ccccc1 (stereo unspecified)
→ 6	5
- CSc1ncccc1C(=O)N(C)C(C)Cc1ccccn1 (stereo unspecified)
→ -5	-6
- CNC(=S)N1CCN(S(=O)(=O)c2ccc(F)c(F)c2F)CC1
→ 4	3
- O=C1CSC(c2ccccc2)N1c1ccc(O)cc1 (stereo unspecified)
→ -3	-7
- CN1CCC2(CC1)CN(C(=O)c1cnc(-c3ccccc3)nc1)CCN2C
→ -1	15
- O=C(CCCc1cccs1)N1CCN(CC(=O)N2CCc3ccccc32)CC1
→ 10	7
- COc1ccc(CCNC(=O)CN2CN(c3ccccc3)C3(CCN(C(=O)C45CC6CC(CC(C6)C4)C5)CC3)C2=O)cc1OC
→ 25	23
- c1coc(CN2CCC3(CC2)NCCc2[nH]cnc23)c1
→ -1	23
- Cc1noc(C)c1COC(=O)C1CC(c2ccc(Cl)s2)=NO1 (stereo unspecified)
→ 8	5
- C/C(=C/C(=O)N1CCCC(N2C(C)CCC2C)C1)C1CC1 (stereo unspecified)
→ 4	4
- Cc1ccc(N(C)C(=O)N2CCN(C(=O)N(C)c3ccc(C)cc3)CC2)cc1
→ 0	12
- Cc1cc(F)cc(-c2c(-c3ccccc3)ncn2CCN2CCC(O)CC2)c1
→ -8	-10
- Cc1cc(CC(=O)N2CCc3c(nc(-c4ccncc4)nc3N(C)C)C2)on1
→ 0	-6
- CCSc1nc(Cc2n[nH]c(Cc3ccccc3)n2)cs1
→ 10	2
- CNc1ccc2ncc(-c3ccc(CN(C)C)cc3)n2n1
→ 0	-1
- COc1cc2c(cc1OC)C(c1ccccc1)N(C(=O)Cc1nc(-c3ccc(C(F)(F)F)cc3)oc1C)CC2 (stereo unspecified)
→ 5	2
- Cc1ccc(C)c(CSC2=NCCN2S(C)(=O)=O)c1
→ 11	10
- CC1CCCN(S(=O)(=O)c2ccc3c(c2)nc(SCc2ccc(OCC(=O)O)cc2)n3CC2CCCO2)C1 (stereo unspecified)
→ -5	-11
- CC(=O)c1ccc(NC(=O)CSc2nc(=O)n(CC3CCCO3)c3c2CCC3)cc1 (stereo unspecified)
→ -4	-12
- CC(C)c1ccc(C(NC(=O)C2CCOCC2)C(C)C)cc1 (stereo unspecified)
→ -6	-4
- CN1CCC2(CC1)CN(C(=O)c1ccc(CN3CCCC3)o1)CCCN2C
→ 3	0
- O=C(Cc1ccc(S(=O)(=O)N2CCCCC2)s1)NC1CCc2ccccc21 (stereo unspecified)
→ -2	-3
- CCOC(=O)N1CCC(NC(=O)Cc2csc(NC(=O)c3ccc[nH]c3=O)n2)CC1
→ 3	6
- Cc1ccc(NC(=O)CC(=O)N2CCCC3(CCNC3)C2)c(C)c1 (stereo unspecified)
→ 8	5
- Cc1ccc2sc(NCCN3CCOCC3)nc2c1C
→ -2	-3
- Cc1cc(NC(=O)CN(CCC(C)C)C(=O)c2ccc(C)c([N+](=O)[O-])c2)no1
→ 20	13
- Cc1nc(COc2ccc(NC(=O)C(C)NC(=O)C3CCOCC3)cc2)no1 (stereo unspecified)
→ -6	-6
- CC1Cc2ccccc2N1Sc1ccccc1[N+](=O)[O-] (stereo unspecified)
→ 0	5
- Fc1ccc(Oc2ncccc2CNc2cnccn2)c(F)c1
→ -1	-4
- CN1C(=O)C(CC(=O)NCc2cnn3ccccc23)N(C)C1=O (stereo unspecified)
→ -1	-1
- CC[C@H]1CN(C(=O)c2cnc(N3CCN(C)CC3)nc2C)CC[C@@]1(C)O
→ 0	0
- COc1ccc(CNC(=O)c2cccnc2Oc2cccc([N+](=O)[O-])c2)cc1
→ -8	-13
- Cc1ccc(-c2ccc(C(=O)NCCCc3ccccn3)cn2)c2cccnc12
→ -5	-8

A second format for some results above:
Cc1noc(C)c1COC(=O)C1CC(c2ccc(Cl)s2)=NO1 (stereo unspecified)
  NPYLR7 agonist = 8; NPYLR7 agonist max-min = 5

CN1C(=O)C(CC(=O)NCc2cnn3ccccc23)N(C)C1=O (stereo unspecified)
  NPYLR7 agonist = -1; NPYLR7 agonist max-min = -1

Cc1ccc(-c2ccc(C(=O)NCCCc3ccccn3)cn2)c2cccnc12
  NPYLR7 agonist = -5; NPYLR7 agonist max-min = -8

Cc1cc(CC(=O)N2CCc3c(nc(-c4ccncc4)nc3N(C)C)C2)on1
  NPYLR7 agonist = 0; NPYLR7 agonist max-min = -6

Not all compounds are listed (hit frequency here may not be typical).
